# Marburg entry inh = qHTS for inhibitors of binding or entry into cells for Marburg Virus; Marburg virus pseudotyped entry inhibition, cell reporter; control for the full effect not named in the record; about a third of the inactives were read at about 46 µM; Potency, µM (titrated, usually from 37.8 µM), without a hit: top-dose activity change, negative = inhibition, actives largely listed as inhibitors; hit rate 1.8% among 300,000; active = well fitted inhibition curve with a large enough effect; inconclusive = small, poorly fitted or top-dose-only effect, or effect the other way; inactive = flat fitted curve, though single readings scatter; tested in HEK293 cells; about a fifth of its hits are not listed in these tables; also: % is scaled to controls: 0 for no effect and ±100 for the full control effect; luciferase read-out
# LASV entry inh = qHTS for Inhibitors of binding or entry into cells for Lassa Virus; Lassa virus pseudotype entry inhibition, cell reporter; control for the full effect not named in the record; Potency, µM (top dose mostly 37.9 µM), inactives show at the highest dose activity change, negative = inhibition, actives largely listed as inhibitors; hit rate 1.2% among 300,000; AID 540256, 2011; active means well fitted inhibition curve with a large enough effect; inconclusive means small, poorly fitted or top-dose-only effect, or effect the other way; inactive means flat fitted curve, though single readings scatter; tested in HEK293 cells; also: % is scaled to controls: 0 for no effect and ±100 for the full control effect; nearly all actives have a fitted effect of over 50% in size; luciferase read-out
# Cruzain noTriton = qHTS Assay for Promiscuous and Specific Inhibitors of Cruzain (without detergent) | Cruzipain (Trypanosoma cruzi), P25779 | purified cruzain, Z-FR-AMC fluorescence, no detergent | Potency, µM, for the others: max response, negative = inhibition, actives largely listed as inhibitors | hit rate 2.3% among 200,000 | AID 1476, 2009;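 also: plate controls were enzyme without inhibitor for no effect and buffer without enzyme for full effect; nearly all actives have a fitted effect of over 40% in size; top concentration of the series not given in the record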
# Target sequence (P25779 123-467 limits assumed): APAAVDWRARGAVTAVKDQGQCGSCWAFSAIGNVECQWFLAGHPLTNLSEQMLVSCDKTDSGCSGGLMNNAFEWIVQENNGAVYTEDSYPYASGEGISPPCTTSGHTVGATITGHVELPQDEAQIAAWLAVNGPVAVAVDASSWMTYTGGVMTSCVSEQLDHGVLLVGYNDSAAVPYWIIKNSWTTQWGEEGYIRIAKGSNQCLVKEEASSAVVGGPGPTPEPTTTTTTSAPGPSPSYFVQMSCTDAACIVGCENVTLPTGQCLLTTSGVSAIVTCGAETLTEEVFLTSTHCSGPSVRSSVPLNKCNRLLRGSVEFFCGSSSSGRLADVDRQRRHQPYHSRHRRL
#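 Detergent-free condition (0.00005% Triton X-100) in acetate buffer pH 5.5 with DTT. 1.5 nM enzyme and compound were pre-mixed 15 min, then 2 uM Z-FR-AMC substrate added; reaction progress from fluorescence change between first and third reads (60 s).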
# NS1 inh = qHTS Assay for Inhibitors of Influenza NS1 Protein Function. S. cerevisiae slowed by influenza A NS1, growth recovery by OD600. Potency, µM (doses to about 46.1 µM), for the others: at the highest dose activity, positive = more growth. hit rate 0.4% among 270,000; active means well fitted rising curve with a large enough effect; inconclusive means small, poorly fitted or top-dose-only effect; inactive means no such curve, though single readings can be large or run the other way; also: nearly all actives have a fitted effect of over 50% in size
#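 OD600 was taken as the measure of yeast growth restored by compound in an NS1-expressing S. cerevisiae strain. Cells had been washed out of glucose medium and diluted 1:100 into galactose -URA medium, pH 6.0.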
# RE007 growth inh = qHTS Assay for Inhibitors of the HIV-1 protein Vpr; Potency, µM (highest dose often 92.2 µM), for inactives: top-dose activity change, negative = less growth; hit rate 0.21% among 360,000; AID 651644, 2012; S. pombe RE007 Vpr strain, BacTiter-Glo ATP luminescence, 24 h; control for the full effect not named in the record; active = well fitted falling curve with a large enough effect; inconclusive = small, poorly fitted or top-dose-only effect; inactive = no such curve, though single readings can be large or run the other way;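 also: % is scaled to controls: 0 for no effect and ±100 for the full control effect; nearly all actives have a fitted effect of over 50% in size; the assay follows cell death caused by Vpr and the record does not say whether a fall means rescue or toxicity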
#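 Fission yeast RE007 carrying one integrated HIV-1 vpr copy, seeded at OD 0.01 in PMG+AL medium with 23 nL pinned compound. Grown 24 h at 30 degrees; viability read by BacTiter-Glo luminescence after 5 min.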
# Cruzain Triton = qHTS Assay for Promiscuous and Specific Inhibitors of Cruzain (with detergent); Cruzipain (Trypanosoma cruzi), P25779; purified cruzain, Z-FR-AMC fluorescence, 0.01% Triton; Potency, µM, for inactives: max response, negative = inhibition, actives largely listed as inhibitors; hit rate 0.43% among 200,000; AID 1478, 2009;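 also: plate controls were neutral wells for no effect and buffer without enzyme for full effect; nearly all actives have a fitted effect of over 40% in size; top concentration of the series not given in the record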
#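 Cysteine protease activity tested under reducing, mildly acidic conditions (100 mM sodium acetate pH 5.5, 5 mM DTT) plus 0.01% Triton X-100. Cruzain 1.5 nM; substrate Z-FR-AMC 2 uM; 15 min compound preincubation at room temperature.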
# SARS PLP yeast = qHTS of Yeast-based Assay for SARS-CoV PLP. S. cerevisiae expressing SARS-CoV PLpro, growth rescue; control for the full effect not named in the record. Potency, µM (top dose mostly 32.9 µM), without a hit: at the highest dose activity, positive = growth rescue. hit rate 0.19% among 330,000. AID 485353, 2010; active means well fitted rising curve with a large enough effect; inconclusive means small, poorly fitted or top-dose-only effect; inactive means no such curve, though single readings can be large or run the other way; also: 0% is about no effect; nearly all actives have a fitted effect of over 55% in size; growth read by luminescence after 48 h
# StopGo reporter = High Throughput Screening for Foot and Mouth Disease Virus Antivirals | human cells with a luciferase reporter of 2A StopGo recoding; control for the full effect not named in the record | Potency, µM (titrated, usually from 57.9 µM), inactives show at the highest dose signal change, negative = less light | hit rate 1.2% among 410,000; active = well fitted falling curve with a large enough effect; inconclusive = small, poorly fitted or top-dose-only effect; inactive = no such curve, though single readings can be large or run the other way; tested in HEK293T cells; also: % is scaled to controls: 0 for no effect and ±100 for the full control effect; nearly all actives have a fitted effect of over 45% in size; luciferase light after 4 h
# Active calls of the source: *; ? = inconclusive; . = not tested or not shown; & = joins results of further samples; [ ] = remark or other dose. Unless noted, calls follow the shape of the dose curve; as a rule, active = well fitted curve in the direction sought with a large enough effect; inconclusive = small, poorly fitted or top-dose-only effect, or another doubt; inactive = no such curve, though single readings can be large; an effect the other way counts as inactive or inconclusive. Potency is read from the fitted curve at half-maximal effect.
SMILES,Marburg entry inh,LASV entry inh,Cruzain noTriton,NS1 inh,RE007 growth inh,Cruzain Triton,SARS PLP yeast,StopGo reporter
CCOc1cc(C2NC(=O)NC(C)=C2C(=O)NCc2ccccc2)c(Cl)cc1O (stereo not drawn),6%,-1%,5%,8%,6%,-1.5%,6%,-3%
COC(=O)c1cc(OC)c(OCc2cc(C(=O)OC)oc2C)c(OC)c1,-18%,-20%,-4%,-1%,2%,-2.9%,1%,-6%
CCc1cc(-c2n[nH]c(C)c2-c2nc(C)cs2)c(O)cc1OC,?,?,.,-11%,-2%,.,-1%,?
CCOC(=O)c1nn(-c2cccc(C)c2)c2nnc(Cc3ccc(C)cc3)c(=O)n12,13%,0%,-10%,-5%,-14%,-3.3%,-9%,-9%
COC(=O)c1ccc(NC(=O)CSc2nc(N)c(NC(=O)c3ccc(Br)o3)c(=O)[nH]2)cc1,11%,6%,.,-5%,-8%,.,7%,-7%
CCN(CC)C(=O)c1sc2c(c1C)c(=O)n(-c1ccc(Cl)c(Cl)c1)c(=O)n2Cc1cc(=O)n2ccccc2n1,.,?,?,.,.,7.7%,.,-19%
O=C(OC1CCN(c2ncc(C(F)(F)F)cc2Cl)CC1)c1ccc(Cl)cc1,-1%,11%,0%,-2%,-3%,2.3%,3%,3%
CN(C)N=Nc1ccc(S(=O)(=O)NC(Cc2ccccc2)C(=O)O)cc1 (stereo not drawn),?,28%[46.1 µM],.,?,12%,.,-1%,-11%
CCOC(=O)C1=C(C)NC2=C(C(=O)c3ccccc32)C1c1ccc(O)cc1 (stereo not drawn),6%,5%,-2%,2%,1%,-3.6%,-5%,-21%
Cc1sc(N)nc1C12CC3CC(CC(C3)C1)C2,?,10%,.,-8%,-3%,.,0%,-27%
C#CCOCCOCCOCCNc1nc(N2CCN(C(=O)[C@H](CCCCN)n3cc(CCCC)nn3)CC2)nc(N2CCN(C(=O)[C@H](Cc3ccc(O)cc3)n3cc(CCO)nn3)CC2)n1,11%,6%,-3%,26%,7%,?,25%,-10%
Cc1ccc(CSc2nnc([C@@H](N)C(C)C)o2)cc1,-2%[46.1 µM],-1%[46.1 µM],1%,.,.,-0.7%,.,-4%
COC(=O)C(Cc1c[nH]c2ccccc12)NC(=O)c1cc(-c2ccc(OC)c(OC)c2)oc1C (stereo not drawn),?,10µM*,?,2%,4%,-3.2%,-13%,-28%
Cc1ccc(C(=O)CN2C(=O)C(C)Oc3ccccc32)cc1 (stereo not drawn),.,.,.,-6%,?,.,-2%,47%[activator]
c1ccc(CSc2nnc3c(n2)OC(c2ccco2)Nc2ccccc2-3)cc1 (stereo not drawn),-13%[46.1 µM],?,-28%,17%,?,-6.6%,-18%,-4%
O=C(NCCc1ccccc1)c1ccc2c(c1)N(Cc1ccc(Cl)cc1)C(=O)c1ccccc1S2(=O)=O,?,-23%[46.1 µM],?,.,.,-1.8%,.,35%[activator]
COc1ccc(CCn2c(=O)c3ccccc3n(CC(=O)Nc3cccc(C)c3)c2=O)cc1OC,8%[46.1 µM],-5%[46.1 µM],2%,.,.,-2.9%,.,2%
Oc1ccccc1C=NCCN1CCN(CCN=Cc2ccccc2O)C1c1ccccc1O (stereo not drawn),?,-5%[46.1 µM],.,.,-16%,.,.,-9%
N=C1C(c2nc3ccccc3[nH]2)=C(O)CN1NC(=O)c1c[nH]c2ccccc12,0%,-5%,.,.,-5%,.,12%,-1%
CCCCC(C)n1[nH]c(=O)cc1N (stereo not drawn),1%,6%,2%,17%,-1%,2.1%,-5%,5%
O=S(=O)(c1ccccc1)N1CCC2(CC1)OCCO2,5%[46.1 µM],4%,.,3%,0%,.,5%,-9%
CCOc1ccccc1N1CCN(C(=O)c2cc(C)oc2C)CC1,-27%,-1%,11%,-1%,5%,3.7%,0%,-26%
Cc1cccc(NC(=O)c2ccccc2SCc2ccc(F)cc2)n1,-15%,-2%,.,.,14%,.,4%,-14%
COc1ccc(NC(=S)N(CCCN2CCCC2)Cc2ccco2)cc1,-16%[46.1 µM],-10%,.,.,0%,.,-3%,2%
Cc1nn(C)cc1CNC(=O)c1cccc(Cl)c1,4%,18%,-4%,4%,-13%,-5.3%,-3%,-7%
COc1cccc(-n2c(=O)c3c(C)c(C(=O)N(C)C)sc3n(CC(=O)NCCc3ccc(OC)c(OC)c3)c2=O)c1,17%&17%,?,3%,.,3%,3.9%,-3%,-2%&-11%
O=C(Cc1cccs1)NCc1ccc(Cl)cc1Cl,-2%[46.1 µM],-4%[46.1 µM],.,-19%,8%,.,-5%,18%
Cc1cc(NC(=O)c2cccc([N+](=O)[O-])c2)n(-c2ccccc2)n1,-3%,0%,-12%,1%,4%,-1.8%,19%,13%
COc1ccc(OC)c(NC(=O)CSc2nnc(CNC(=O)c3ccccc3F)o2)c1,-5%[46.1 µM],11%[46.1 µM],.,11%,7%,.,7%,-3%
COCCNC(=O)CN1C(=O)COc2ccc(S(=O)(=O)N3CC(C)CC(C)C3)cc21 (stereo not drawn),.,.,.,5%,0%,.,-3%,-19%
CC(Sc1nncs1)C(=O)NCc1ccc2c(c1)OCO2 (stereo not drawn),?,11%,-2%,5%,-10%,-0.6%,3%,1%
CSCC[C@H](NC(=O)Nc1ccc(OC(F)(F)F)cc1)C(=O)O,-16%[46.1 µM],21%[46.1 µM],.,1%,5%,.,1%,-7%
CCOc1ccc(NC(=O)CSc2nc(=O)[nH]c3c2CCC3)cc1,.,?,-11%,.,.,1.3%,.,-15%
Cc1ccccc1NC(=O)C(NC1CCCCC1)C(C)C (stereo not drawn),-19%[46.1 µM],13%[46.1 µM],.,5%,2%,.,1%,1%
O=C(Nc1cccc(OC(=O)c2ccc(Br)o2)c1)c1ccccc1,.,.,.,-64%,5%,.,-13%,25%
Cc1ccccc1Nc1ncc(C#N)c(N)n1,.,.,.,-3%,-8%,.,1%,39%[activator]
S=c1[nH]nc(C2CCCCC2)n1/N=C/c1ccccc1Cl,17%,-40%,.,-47%,-4%,.,-3%,-10%
Cc1ccccc1OC1=NS(=O)(=O)c2ccccc21,7%&7%[46.1 µM],21%,.,1%,-16%,.,0%,0%
COc1ccc(-c2nc(CSc3nnc(C)n4c3cc3oc(C)cc34)c(C)o2)cc1OC,.,23%[46.1 µM],-7%,.,.,-1.0%,.,-11%
Cc1ccc(Sc2nc3c(c(=O)[nH]c(=O)n3C)n2CCc2ccccc2)cc1,.,.,-2%,12%,14%,3.1%,8%,-21%
CN(CC(=O)Nc1ccccc1N1CCOCC1)S(=O)(=O)c1ccc(Cl)cc1,?,-18%,9%,-4%,0%,-0.2%,7%,?
CCOC(=O)c1c(C)c(C(=O)NCc2cccs2)c(C)n1CC,-1%,-4%,0%,-13%,4%,2.2%,1%,-1%
CCC(C(=O)N1CCN(Cc2ccc3c(c2)OCO3)CC1)n1c(=O)[nH]c2ccccc2c1=O (stereo not drawn),-1%[46.1 µM],8%[46.1 µM],.,-3%,0%,.,2%,1%
COC(=O)c1ccc(COC(=O)c2cccnc2Cl)cc1,7%[46.1 µM],14%[46.1 µM],.,0%,11%,.,-3%,13%
Cc1ccc(N2C(=O)CSC23C(=O)N(CC(=O)NC2CCCCC2)c2ccccc23)cc1C (stereo not drawn),.,-24%[46.1 µM],-4%,.,.,-0.3%,.,-5%
CCN(CCCNC(=O)c1cc2c(=O)n(CC)c3ccccc3c2s1)Cc1ccccc1,4.5µM*,?,-7%,.,.,-1.3%,.,-14%
Nc1ccc(C(=O)N/N=C\c2cc(N=Nc3cccc4ccccc34)ccc2O)cc1,16µM*,?,-21%,7%,-3%,-6.3%,-3%,15%
O=C(c1ccc(Cl)cc1)N1CCC(c2nc(-c3cccs3)no2)CC1,-30%,-36%[14.3 µM],3%,-39%,11%,-9.1%,7%,-16%
CN1CCN(C2=CC3=CC(=C(C#N)C#N)CCC3CC2)CC1 (stereo not drawn),0%[46.1 µM],-25%,.,2%,-21%,.,2%,-11%
O=C(O)CCSc1nnc(COc2ccc(Cl)cc2)n1-c1ccccc1,.,.,.,?,-6%,.,3%,-4%
CCN(c1ccc(OC)cc1)S(=O)(=O)N1CCCC(C(=O)NCc2ccccc2Br)C1 (stereo not drawn),-28%[46.1 µM],?,.,-7%,6%,.,-1%,-18%
O=C(CSc1nnc(-c2ccccc2Cl)o1)N1CCCCC1,.,.,6%,-17%,-19%,0.7%,1%,0%
O=C(O)c1ccc(-n2nnnc2Oc2cccc3cccnc23)cc1,7%,-1%,-6%,4%,12%,2.3%,-7%,9%

# 6 of the compounds above, with two lines to a compound.
# Below each SMILES: Marburg entry inh	LASV entry inh	Cruzain noTriton	NS1 inh	RE007 growth inh	Cruzain Triton	SARS PLP yeast	StopGo reporter
O=C(c1ccc(Cl)cc1)N1CCC(c2nc(-c3cccs3)no2)CC1
    -30%	-36%[14.3 µM]	3%	-39%	11%	-9.1%	7%	-16%
Cc1ccc(Sc2nc3c(c(=O)[nH]c(=O)n3C)n2CCc2ccccc2)cc1
    .	.	-2%	12%	14%	3.1%	8%	-21%
COc1cccc(-n2c(=O)c3c(C)c(C(=O)N(C)C)sc3n(CC(=O)NCCc3ccc(OC)c(OC)c3)c2=O)c1
    17%&17%	?	3%	.	3%	3.9%	-3%	-2%&-11%
COc1ccc(NC(=S)N(CCCN2CCCC2)Cc2ccco2)cc1
    -16%[46.1 µM]	-10%	.	.	0%	.	-3%	2%
CCOc1ccc(NC(=O)CSc2nc(=O)[nH]c3c2CCC3)cc1
    .	?	-11%	.	.	1.3%	.	-15%
c1ccc(CSc2nnc3c(n2)OC(c2ccco2)Nc2ccccc2-3)cc1 (stereo not drawn)
    -13%[46.1 µM]	?	-28%	17%	?	-6.6%	-18%	-4%

# Assay outcomes: PubChem, National Center for Advancing Translational Sciences (NCATS)
